# Assay outcomes as filed in PubChem.
# NPR1 antag – Natriuretic polypeptide receptor (hNpr1) antagonism - Primary qHTS; Potency, µM (titrated, usually from 46.3 µM), for the others: at the top dose activity change, negative = inhibition, most hits filed as inhibitors; AID 1347048, 2019; HEK293 hNpr1 GloSensor cGMP, ANP-stimulated luminescence; actives 1.6% (n = 76,000); Atrial natriuretic peptide receptor 1 (Homo sapiens), P16066; active = well fitted inhibition curve with a large enough effect; inconclusive = small, poorly fitted or top-dose-only effect; inactive = no such curve, though single readings can be large or run the other way;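 note: nearly all actives have a fitted effect of over 60% in size; nearly all hits also lower the signal before the agonist is added; a reference antagonist and vehicle were the controls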
# Target sequence (P16066 whole entry, looked up): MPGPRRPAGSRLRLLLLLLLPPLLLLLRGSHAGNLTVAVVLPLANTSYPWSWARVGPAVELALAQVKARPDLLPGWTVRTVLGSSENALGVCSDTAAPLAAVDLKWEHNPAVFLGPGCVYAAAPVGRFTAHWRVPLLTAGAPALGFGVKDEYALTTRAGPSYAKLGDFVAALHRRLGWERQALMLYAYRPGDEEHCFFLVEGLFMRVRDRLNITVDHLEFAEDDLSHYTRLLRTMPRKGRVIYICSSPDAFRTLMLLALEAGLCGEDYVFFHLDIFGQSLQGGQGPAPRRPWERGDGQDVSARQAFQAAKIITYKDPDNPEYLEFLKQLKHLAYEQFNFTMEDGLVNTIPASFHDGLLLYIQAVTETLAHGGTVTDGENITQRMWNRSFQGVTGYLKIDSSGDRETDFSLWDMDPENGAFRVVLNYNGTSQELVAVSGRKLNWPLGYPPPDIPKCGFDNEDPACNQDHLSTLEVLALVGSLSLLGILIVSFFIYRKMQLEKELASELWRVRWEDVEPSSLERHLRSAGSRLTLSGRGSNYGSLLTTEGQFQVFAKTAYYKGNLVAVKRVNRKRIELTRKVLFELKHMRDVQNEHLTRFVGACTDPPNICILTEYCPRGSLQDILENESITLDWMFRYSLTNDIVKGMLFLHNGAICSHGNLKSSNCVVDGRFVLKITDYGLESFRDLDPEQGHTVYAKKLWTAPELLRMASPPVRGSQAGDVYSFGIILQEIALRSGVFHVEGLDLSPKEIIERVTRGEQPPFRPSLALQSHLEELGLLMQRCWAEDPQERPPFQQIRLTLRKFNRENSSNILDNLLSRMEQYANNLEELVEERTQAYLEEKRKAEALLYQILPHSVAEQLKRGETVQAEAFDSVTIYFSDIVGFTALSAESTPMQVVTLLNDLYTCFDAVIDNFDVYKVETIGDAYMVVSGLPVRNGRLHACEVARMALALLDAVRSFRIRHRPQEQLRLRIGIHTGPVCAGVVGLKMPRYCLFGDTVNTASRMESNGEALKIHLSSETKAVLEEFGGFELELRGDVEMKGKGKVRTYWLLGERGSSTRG
#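 Compound pre-incubated 30 min at room temperature on GloSensor-loaded HEK293 cells stably carrying hNpr1 and the pGS-40F cGMP biosensor. Stimulation uses hNppA at 0.1 nM final; luminescence is taken at baseline and 20 min post-agonist.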
# Active calls of the source: *; ? = inconclusive; [ ] = dose if it differs, or a comment. % is set by controls: 0 for no effect and ±100 for the full control effect; potency is the fitted concentration of half-maximal effect. Only part of the results is shown. The share of hits here may be higher or lower than overall.
# Start of the listing, in advance:
Structure,NPR1 antag
Cn1cccc1C(=O)N1C[C@@H](Oc2ccccc2)C[C@H]1C(=O)N1CCOCC1,4%
O=C(C1CCc2ncc(-c3ccc(F)cc3)n2C1)N1CCOCC1 (stereo unspecified),0%
Cc1ccc(S(=O)(=O)N2CCC(CC(=O)NCc3ccccc3)C2)cc1C (stereo unspecified),-1%

# All compounds of this part, repeating the preview:
Structure,NPR1 antag
Cn1cccc1C(=O)N1C[C@@H](Oc2ccccc2)C[C@H]1C(=O)N1CCOCC1,4%
O=C(C1CCc2ncc(-c3ccc(F)cc3)n2C1)N1CCOCC1 (stereo unspecified),0%
Cc1ccc(S(=O)(=O)N2CCC(CC(=O)NCc3ccccc3)C2)cc1C (stereo unspecified),-1%
CCn1cc(S(=O)(=O)NCC2COc3ccccc3C2)c(C)n1 (stereo unspecified),1%
CC1(C)CC(CC(=O)N[C@H](Cc2ccccc2)C2CC(O)C2)CC(C)(C)N1 (stereo partly specified),5%
O=C(NC1CCCCC1)C1CCc2sc(C(=O)N3CCCC3)cc2C1 (stereo unspecified),0%
COCCN1C(=O)CC[C@]2(C(=O)N(C)Cc3cccnc3)CCCC[C@@H]12,-6%
C=CCn1cc2c3c(cccc31)[C@H](CC(C)C)N[C@H](C(=O)NC1CCCC1)C2,0%[70.6 µM]
Cc1cc(C(=O)N2CCc3nnc([C@@H]4C[C@@H](O)CN4C)n3CC2)nn1C,-2%
CN1CCCCC(CC(=O)O)C1=O (stereo unspecified),2%
C=CCN1CC2(CCC1=O)CCN(C(=O)[C@H](N)Cc1ccccc1)CC2,3%
O=C(N[C@@H]1COCC[C@@H]1OCc1cscn1)c1ccc2c(c1)CCO2,6%
Clc1ccc(C2Cn3nnc(-c4noc(Cc5ccccc5Cl)n4)c3CO2)cc1 (stereo unspecified),0%
Cc1cccc(-n2nc(-c3c(C)nc4scc(CC(=O)NC(C)C(C)C)n4c3=O)cc2C)c1C (stereo unspecified),4%
CCCNC(=O)CN1C(=O)NC2(CCC(C(C)(C)C)CC2)C1=O (stereo unspecified),13%
COc1ccccc1N1CCN(C(=O)c2cn[nH]c2-n2cnnn2)CC1=O,1%
OC1(CN2CCN(c3cnccn3)CC2)CNCCOC1 (stereo unspecified),4%
OC[C@H]1C[C@@H](NCc2ccc(F)cc2)[C@H](O)[C@@H]1O,-2%[70.6 µM]
Cc1nc(N(C)C)ncc1C(=O)N[C@@H]1CCOC[C@H]1Oc1ccccn1,-10%
CCn1nccc1C(=O)N1CCN(Cc2ccc(=O)n(C)c2)CC1,2%
Cc1ccc(C(=O)N2CCC(N3C(=O)CCC3C(=O)NCc3ccccc3)CC2)cc1 (stereo unspecified),-3%
O=C(NCc1ccncc1)C1CN(S(=O)(=O)c2cccc(Cl)c2)CC12CCOCC2 (stereo unspecified),-9%
C#CCN(C)Cc1nc(C2(O)CCN(C(=O)COC)CC2)cs1,2%[70.6 µM]
O=C(CCCc1ccccc1)N1CCC2(CC1)CC(N(Cc1ccccc1)C1CC1)CCO2 (stereo unspecified),-16%
O=C(NC1CCCCC1)N1CCC(Oc2ncccc2C(=O)N2CCCCC2)C1 (stereo unspecified),0%
Cn1nc(-c2nncn2CC2CC2)c2c1CCNC2,-1%
COCCOC1CCOC2(CCN(S(=O)(=O)c3cn(C)cn3)CC2)C1 (stereo unspecified),-14%
CC1=C[C@@H](CNC(=O)CC(C)(C)C)[C@H](C(C)C)C[C@H]1CC(=O)NC1CCCC1,-1%[70.6 µM]
COc1ccc(Cn2c(-c3ccc(F)cc3)nc(C)c(CCO)c2=O)cc1F,5%
COc1ccc(C(=O)Nc2ccc([C@@H](O)[C@H]3COCC(=O)N3CC3CCCCC3)cc2)cc1,-19%
C[C@@H](NC(=O)c1cccnc1)c1onc(-c2ccc(F)cc2)c1C(=O)O,0%[70.6 µM]
O=S(=O)(NCCc1noc(-c2ccccc2)n1)c1cccs1,-22%
CC(=O)NC[C@@H]1C=C(C)[C@H](CC(=O)N(C)Cc2ccccc2)C[C@H]1C(C)C,5%[70.6 µM]
CCOc1ccccc1-c1noc(-c2nc(CC)no2)n1,2%
Cc1cccc(NC(=O)Cn2cccc2-c2nc(-c3ccc4c(c3)OCO4)no2)c1,-4%
Cc1cc(=O)n(CC(=O)Nc2ccccc2F)c(-c2ccc(Cl)cc2)n1,-2%
COc1cc(NC(=O)CN2C(=O)C(c3ccccc3)=NC2(C)C)cc(OC)c1OC,-11%
COc1cccc(CN2CCc3c(cc(C(=O)NCc4cccs4)n3C)C2)c1,-2%
CCn1cc(-c2ccncc2)cc1C(=O)NCc1ccc(SC)cc1,-23%
c1cnc2c(c1)nc1n2[C@@H](CNC2CCOCC2)COC1,0%[70.6 µM]
Cc1ccc(CNC(=O)N2CCc3c(nc4cc(-c5ccccc5Cl)[nH]n4c3=O)C2)cc1,-14%
CC(=O)N1C[C@@H]2CCCN3CCC[C@@H]([C@H]23)[C@H]1CCCC(=O)NCc1ccc(C)o1,-13%
O=c1[nH]nc2n1CCCCC2,11%
COc1ccc(-c2ncc3c(n2)OCCN(Cc2ccccc2)C3=O)cc1,28µM*
CC(=O)N1CCC(c2nc(-c3nnn4c3COC(c3ccc(Cl)cc3)C4)no2)CC1 (stereo unspecified),-14%
O=C1NC2(CN([S+](=O)([O-])c3ccccc3)C2)Oc2ccccc21,2%[70.6 µM]
c1ccc(CN2CCn3c(nnc3C3CCCNC3)C2)cc1 (stereo unspecified),-1%
O=C(CC1CNCCO1)NCc1nc(-c2cccc(F)c2)c(-c2ccccn2)[nH]1 (stereo unspecified),3%
Cc1nn(C)c(C)c1C(C)NC(=O)c1ccc(CC2CCN(C(=O)C3CC3)CC2)cc1 (stereo unspecified),11µM*
CCc1noc(-c2cn(C3CCCN(C(=O)c4ccc(Cl)s4)C3)nn2)n1 (stereo unspecified),-20%

# Further entries
Structure,NPR1 antag
Cc1ccccc1C(=O)N1C(C(=O)NC2CC2)COC12CCN(C(=O)c1cccc(Cl)c1)CC2 (stereo unspecified),-5%
O=C1CC(c2ccccc2)N(C(=O)C2CC2)CCCN(C(=O)NCCc2ccccc2)CCN1 (stereo unspecified),-6%
CC(C)CC(=O)N[C@H](C)c1c(-c2ccc(Cl)cc2)noc1C(=O)O,6%[70.6 µM]
CCOCCn1c(=O)[nH]c2cc(C(=O)NCc3csc(CC)n3)ccc21,-1%
CC1=NS(=O)(=O)N(C)C=C1C(=O)OCc1nc(-c2ccc(F)cc2)no1,11µM*
O=C(CC[C@@H]1CNC(=O)[C@@H]2C[C@H](NCc3ccc(F)cc3)CN12)NCc1ccc(F)cc1,-2%
CC(C)C(NC(=O)C1CCN(C(=O)C2CCC2)CC1)c1nc(C2CC2)no1 (stereo unspecified),2%
COc1ccc(CCC(=O)N2C[C@@H](Oc3ccccc3)C[C@@H]2C(=O)N2CCOCC2)cc1,-1%
COc1ccccc1CC(=O)NCc1cccnc1-n1cnc2ccccc21,0%
NC(=O)c1cccnc1OC1CCN(Cc2cccnc2)CC1,2%
Cc1ccc2nc(C3CCN(c4cc(C5CC(O)C5)ncn4)CC3)[nH]c2c1 (stereo unspecified),?
CCc1nc2c(c(-c3ccc(O)cc3)n1)CCN(Cc1cccc(OC)c1)CC2,-1%
COCC(=O)N1CCc2nc(C)nc(-c3ccc(OC)cc3)c2C1,2%[70.6 µM]
CCN1CCN(CCNC(=O)C2N(C(C)C)C(=O)C23CCCCC3)CC1 (stereo unspecified),6%
O=C(Nc1nccs1)C1CC(=O)N(c2n[nH]c3cc(Br)ccc23)C1 (stereo unspecified),-20%
O=C(NC1CC1)[C@@H]1CN(Cc2ccc(F)cc2F)C[C@H]1CO,2%
O=C(NCc1c[nH]c2ncccc12)c1ccccc1Cl,6%[70.6 µM]
O=C(C1CC1)N1CCC(N2C(=O)C3(CCCCC3)C2c2ccccc2)CC1 (stereo unspecified),2%
Cn1nc(C(=O)N2CC[C@H](CO)[C@H](NC(=O)C3CC3)C2)c2ccccc21,16%
O=C(NC1CCN(c2nnc3ccccn23)CC1)c1ccc(Cl)s1,-1%
O=C(c1ccco1)N1CCn2c(nnc2[C@@H]2C[C@@H](O)CN2Cc2ccccc2)C1,13%
CC(C)Cc1cc(CNc2nc(C(C)(C)C)nc3c2cnn3C)no1,-12%
Cn1nccc1CN1CCCC2(CC(c3cccc(C(F)(F)F)c3)=NO2)C1 (stereo unspecified),0%
CN1C(=O)[C@H]2CN(Cc3ccc4[nH]ccc4c3)C[C@H]2C1=O,-8%
Cc1ccc(C2Cn3nnc(C(=O)N4CCN(C(=O)c5ccoc5)CC4)c3CO2)cc1 (stereo unspecified),-9%
CCC(=O)N1CCN(c2nc3c(s2)CC(C(=O)NCc2ccc(C)o2)CC3)CC1 (stereo unspecified),-3%
COc1ccc(-n2nc(C3CCN(C(=O)c4cccc(OC)c4)CC3)[nH]c2=O)cc1,-5%
COc1ccc(C(=O)N2CCc3ccc(C(=O)NCc4cccs4)cc32)cc1,-1%
CCc1nnc(CN2CC[C@@H]3[C@@H](CCC(=O)N3CCc3ccccc3)C2)o1,-4%
Cc1nn(C(=O)CCCC(=O)N2CCC(Cc3nncn3C(C)C)CC2)c2ccccc12,2%
CC(c1ccc2c(c1)OCCO2)N(C)C(=O)c1ccc2nccn2c1 (stereo unspecified),-6%
O=C(C[C@@H]1C[C@H]2O[C@H](CNCc3ccccc3Cl)[C@@H](O)[C@H]2O1)N1CCC(F)(F)C1,1%[70.6 µM]
COCC(=O)N1CCc2c(sc3ncnc(N4CCN(C)CC4)c23)C1,-11%
Cc1ccc(C)c(NC(=O)CN2C(=O)NC(c3ccc(Cl)cc3)C3=C2COC3=O)c1 (stereo unspecified),-9%
COCC(=O)N1CC(C(=O)NC(C)c2ccccc2)CC(c2ccc(OC)c(OC)c2)C1 (stereo unspecified),-3%
CNC(=O)[C@H]1C[C@H](Oc2ccccc2)CN1Cc1scnc1C,2%
O=C1c2cnc(-c3cccc(CO)c3)nc2OCCN1Cc1ccccc1,-14%[70.6 µM]
CN(C/C=C/c1ccccc1)C(=O)C1CCC(=O)N(Cc2cccc(F)c2)C1 (stereo unspecified),-3%
CCOc1ccc(NC(=O)N2CCc3cc(OC)c(OC)cc3C2CNC(=O)CC(C)C)cc1 (stereo unspecified),3%
CN1C(=O)c2cccn2CC1CNC(=O)C1(S(=O)(=O)c2ccc(Cl)cc2)CC1 (stereo unspecified),-2%
COc1cccc(-c2cc(C3CCN(C(=O)Nc4ccccc4C)CC3)[nH]n2)c1,-26%
O=C(c1ccc(Cl)cc1)N1CCc2c(n(Cc3cccnc3)n(-c3ccccc3)c2=O)C1,2%
Cc1nn(-c2ccccc2)c(Oc2ccc(F)cc2F)c1CCC(=O)N(C)C(C)C,?
COc1ccccc1CCC(=O)N1CCN(c2cc(-c3ccccc3)[nH]n2)CC1,-13%
C[C@H](O)c1onc(-c2ccc(F)cc2)c1C(=O)NC1CCCC1,2%[70.6 µM]
COCCNC(=O)CCc1c(C)nn(-c2ccc(F)cc2)c1Oc1ccccc1F,-5%
Cc1ccc(-c2ncc(C(=O)NCCN3CCN(C)CC3)c(-c3ccncc3)n2)cc1,-11%
O=C(c1ccccc1F)N1CCCC(n2cc(-c3nc(C4CC4)no3)nn2)C1 (stereo unspecified),-12%
O=C(c1cccs1)N1CCCCCC1CN1CCCC1 (stereo unspecified),4%
CC(C)Cc1nc2nccc(-c3cccs3)n2n1,5%

# Other compounds
Structure,NPR1 antag
CNC(=O)[C@@H]1C[C@H](Oc2ccccc2)CN1C(=O)Cn1nc(C)cc1C,7%
COC(=O)CNC(=O)NCCc1ncc(C)n1Cc1ccccc1,0%
CCOC(=O)c1[nH]ncc1CN1CCOC(Cc2ccc(OC)cc2)C1 (stereo unspecified),-8%
Cc1ccsc1C(=O)N1CCC(n2cc(-c3nc(-c4ccccc4)no3)nn2)CC1,?
Cc1cccc(CC(C)NC(=O)c2coc(COc3ccc4c(c3)OCO4)n2)n1 (stereo unspecified),-7%
COc1cccc(NC(=O)NC[C@H]2O[C@@H](CO)[C@@H](O)[C@H]2N2CCN(c3ccccc3OC)CC2)c1,7%
Cc1noc2c(NCc3ccccc3)cc(-c3cccnc3)nc12,7%[70.6 µM]
COc1ccc(OC)c(CN2CCC3OCCN(Cc4ccccc4)C(=O)C3C2)c1 (stereo unspecified),-7%[70.6 µM]
CNC(=O)[C@@H]1C[C@@H](O)CN1C1CCN(C(=O)Cn2c(=O)oc3ccccc32)CC1,3%

# 7 neighbouring compounds already listed, quoted:
Structure,NPR1 antag
COC(=O)CNC(=O)NCCc1ncc(C)n1Cc1ccccc1,0%
CCOC(=O)c1[nH]ncc1CN1CCOC(Cc2ccc(OC)cc2)C1 (stereo unspecified),-8%
Cc1ccsc1C(=O)N1CCC(n2cc(-c3nc(-c4ccccc4)no3)nn2)CC1,?
Cc1cccc(CC(C)NC(=O)c2coc(COc3ccc4c(c3)OCO4)n2)n1 (stereo unspecified),-7%
COc1cccc(NC(=O)NC[C@H]2O[C@@H](CO)[C@@H](O)[C@H]2N2CCN(c3ccccc3OC)CC2)c1,7%
Cc1noc2c(NCc3ccccc3)cc(-c3cccnc3)nc12,7%[70.6 µM]
COc1ccc(OC)c(CN2CCC3OCCN(Cc4ccccc4)C(=O)C3C2)c1 (stereo unspecified),-7%[70.6 µM]
